Compound activity from PubChem.
VDR inh – vitamin D3 receptor (human) inhibition; VDR-SRC2-3 peptide fluorescence polarization, 2 h; AID 504847; P11473; 400,000 tested, 0.93% active; Potency, µM, without a hit: max response, negative = inhibition, hits mostly inhibitors; active = well fitted inhibition curve with a large enough effect; inconclusive = small, poorly fitted or top-dose-only effect, or another doubt; inactive = no such curve, though single readings can be large or run the other way; note: series mostly up to about 120 µM
Target sequence (P11473 whole entry, looked up): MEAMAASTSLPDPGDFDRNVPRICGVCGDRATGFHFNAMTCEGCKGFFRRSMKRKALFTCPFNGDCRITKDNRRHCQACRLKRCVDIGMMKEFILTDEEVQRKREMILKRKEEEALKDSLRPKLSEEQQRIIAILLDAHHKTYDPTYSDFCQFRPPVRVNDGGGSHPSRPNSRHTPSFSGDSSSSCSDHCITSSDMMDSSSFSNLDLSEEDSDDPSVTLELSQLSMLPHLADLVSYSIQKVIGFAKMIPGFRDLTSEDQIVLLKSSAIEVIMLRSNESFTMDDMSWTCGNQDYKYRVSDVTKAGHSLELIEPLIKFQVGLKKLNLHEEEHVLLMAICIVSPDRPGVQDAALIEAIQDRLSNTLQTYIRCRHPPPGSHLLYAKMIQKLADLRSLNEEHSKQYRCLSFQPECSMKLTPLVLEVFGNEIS
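After 23 nl compound addition and a short centrifugation, plates sat for 2 hours at ambient temperature; polarization of fluorescence then indicated loss of VDR binding to peptide SRC2-3.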
* hit, by the source's call; u = inconclusive; & = joins results of further samples; [ ] = remark or other dose. % is set by controls: 0 for no effect and ±100 for the full control effect; potency is the fitted concentration of half-maximal effect.

structure	VDR inh
CCOC(=O)[C@@H]1[C@H]2COc3ccc(Br)cc3[C@@H]2N2C(=O)N(c3ccc(F)cc3)C(=O)[C@]12C	4%
CC(SCc1ccccc1)C(=O)N/N=C/c1ccc2c(c1)OCO2 (stereo not drawn)	1%
Cc1ccccc1NC(=O)c1ccccc1NC(=O)c1ccco1	22%
CCN1CCN(CCCNC(=O)c2ccc3c(c2)N(Cc2ccc(C)cc2)CCS3)CC1	-4%
CC(C)(C)c1ccc(C(=O)OCC(=O)Nc2sc3c(c2C#N)CCC3)cc1	-28%
C[C@@]12CCC=C[C@H]1[C@H](c1ccc(/C=C/c3ccccc3)cc1F)N(Cc1ccccc1)C2=O	-13%
COc1ccccc1OCc1ccc(C(=O)NCc2ccco2)o1	-3%
CN(C)S(=O)(=O)c1ccc(Cl)c(C(=O)Nc2cccc([N+](=O)[O-])c2)c1	-9%
O=C(CO/N=C/c1ccc(OC(F)F)cc1)NCc1cccs1	-20%
C=CCn1c(C)nnc1SCC(=O)Nc1nc(C)c(C(=O)N(C)C)s1	-8%
COc1cc(-c2nnc(SCc3cccnc3)n2C)cc(OC)c1O	3%
CCOC(=O)c1ccc(NC(=O)c2nc[nH]c2C(=O)N[C@@H](C)C(=O)OC(C)(C)C)cc1	-3%
O=C(Cc1ccc(Br)cc1)OCC(=O)c1ccc[nH]1	-15%
CC1(C)SC(=Nc2ccccc2)N(S(=O)(=O)c2ccccc2)C1=O	-6%
Cc1cc(C(=O)c2ccc3ccccc3c2)c(C)o1	-27%
CC(NC(=O)c1cncc(Br)c1)c1ccc(S(N)(=O)=O)cc1 (stereo not drawn)	-10%
O=C1OCCC1Sc1nc2ccccc2c(=O)n1Cc1ccccc1 (stereo not drawn)	5%
CCOC(=O)Nc1sc(=S)n(C)c1C	14%
C=C1C=CS(=O)(=O)N(C(CC(C)C)C(=O)OC)C1 (stereo not drawn)	-24%
O=P(Cc1ccncc1)(c1ccccc1)c1ccccc1	-11%
CC/C(O)=C1\C(=O)CC(C)(C)CC1=NCCc1nc2ccccc2[nH]1	7%
Cc1ccn2c(Nc3ccc4c(c3)OCCO4)c(-c3cccs3)nc2c1	9%
CC(C)NC(=S)N/N=C/C1=CCC2CC1C2(C)C (stereo not drawn)	-7%
CC(=O)Nc1ccc(NC(=O)CSc2nnc(C)c(=O)n2N)cc1	-6%
CCCc1cc(=O)[nH]c(SCCOc2ccc(OCC)cc2)n1	-7%
COc1cc(CC(=O)NCC(C)(C)N2CCOCC2)cc(OC)c1OC	6%
CCCCCn1c(=S)[nH]c2ncccc2c1=O	6%
CCOC(=O)/C(=C/c1ccc(F)cc1)NC(C)=O	-18%
Cc1nn(-c2ccccc2)c(N)c1C1(O)C(=O)Nc2ccccc21 (stereo not drawn)	1%
CCn1c(Cc2c(C)[nH]c3ccccc23)nnc1SCC(=O)NCc1ccco1	3%
CCOC(=O)N1CCN(S(=O)(=O)c2ccc3c(c2)CCN3C(=O)C2CC2)CC1	2%
Cc1ccc(CNC(=O)c2ccc(Cl)c(S(=O)(=O)N3CCCCC3)c2)cc1	-4%
COC(=O)c1sc(NC(=O)CSc2nnc(C(C)C)n2C)nc1C	9%
COc1ccc(CCNC(=O)COc2ccc(C)nc2[N+](=O)[O-])cc1	-6%
Cc1cccc(NC(=O)c2sc3nc(-c4ccc(F)cc4)cn3c2C)n1	-13%
CC(C)CN(Cc1c(O)ccc2ccccc12)CC(C)C	-22%
O=C(CSCc1ccccc1Br)N/N=C/c1ccc2c(c1)OCO2	-8%
COc1cc(C(=O)NCCCNc2nc3cc(C)cc(C)c3cc2C#N)cc(OC)c1OC	-7%
CCN(Cc1ccccc1)C(=O)CN1C(=S)NC(C)(C)CC1C (stereo not drawn)	-10%
CC(C)C(=O)NC(=S)Nc1ccccn1	-15%
Cc1cccc(C)c1NC(=O)CN1CCc2ccccc2C1	-2%
COc1ccc(-c2cc(C(F)(F)F)n3nc(C(=O)O)cc3n2)cc1OC	-3%
CN(C)C(=O)CSc1nc(-c2cccs2)c(-c2cccs2)[nH]1	5%
C/C(=C\c1ccc(C)o1)C(=O)c1c(C)cc(C)[nH]c1=O	-22%
CCOC(=O)c1cc(-c2ccc(C)cc2)n(CCCC(=O)Nc2cc(C)ccc2C)c1	-2%
Cc1cc(C)cc(NC(=O)Nc2ccc3c(c2)CCC3)c1	-10%
CCC(=O)N(Cc1ccco1)c1nc(-c2ccc(OC)cc2)cs1	-3%
COc1cc(O)c2c(=O)cc(-c3ccccc3)oc2c1	-11%
O=C(CCc1ccccc1F)N1CCN(c2ccccc2)CC1	-6%
COc1ccccc1-c1csc2ncnc(Sc3nnnn3C)c12	0%
CCOC(=O)c1cc(=O)n2nc(-c3ccc(C)cc3)nc2s1	10%
CNC(=S)Nc1ccc2[nH]c(=O)[nH]c2c1	12%
COc1ccc(C(CNC(=O)c2oc3ccccc3c2C)N2CCCCC2)cc1 (stereo not drawn)	5%
CCOC(=O)c1cnc2ccc(OCC)cc2c1N(C)Cc1ccccc1	-17%
CCOC(=O)CSc1nnc([C@H](C)NC(=O)OC(C)(C)C)o1	4%
Cc1ccc(OCCCC(=O)Nc2ccc3c(c2)OCCO3)cc1	12%
COc1ccccc1N(CC(=O)Nc1cccnc1)S(=O)(=O)c1ccccc1	-12%
COc1ccc(/C=N/Nc2nnc(-c3ncc[nH]3)c3ccccc23)cc1	17%
Cc1cccc(C(=O)NC2=NCCS2)c1	2%
O=C(NCCCN1CCCC1=O)c1cc(S(=O)(=O)N2CCOCC2)ccc1Cl	16%

A second format for some results above:
VDR inh,structure
10%,CCOC(=O)c1cc(=O)n2nc(-c3ccc(C)cc3)nc2s1
12%,CNC(=S)Nc1ccc2[nH]c(=O)[nH]c2c1

The list goes on:
structure	VDR inh
O=C(Nc1c(-c2ccc(F)cc2)nc2ccccn12)c1cccc(F)c1	-8%
O=C(OC1CCOC1=O)C1CCN(S(=O)(=O)c2ccccc2)CC1 (stereo not drawn)	14%
CCCN=C1N(C)C[C@@H]2[C@@H]3C(=O)N(Cc4ccccc4)C(=O)[C@@H]3[C@](Cc3ccccc3)(C(=O)OC)N12	5%
COc1ccc(C(C)(C)C)cc1S(=O)(=O)n1ccnc1C	13%
CCN(CC(=O)Nc1ccc(C)c(S(=O)(=O)N2CCOCC2)c1)Cc1ccccc1	10%
COc1cccc(CNC(C)(C)CO)c1OCc1ccc(Cl)cc1	2%
O=C(Cc1ccccc1)N1CCCC1c1ccccc1 (stereo not drawn)	3%
COc1ccc(C(=O)C2CCCN(Cc3c[nH]c4ccccc34)C2)c(OC)c1 (stereo not drawn)	-2%
O=C(COc1ccccc1Cl)Nc1ccccc1OCc1cc(=O)n2ccccc2n1	8%
O=C(c1ccco1)N1CCN(Cc2ccc(F)cc2)CC1	2%
CCCC(C)NC(=O)Cc1ccc(Br)cc1 (stereo not drawn)	10%
COc1cc(-c2noc(CCC(=O)NC3CCCC3)n2)cc(OC)c1OC	5%
COc1cccc(OC)c1C(=O)Nc1ccccc1C(=O)N1CCCCCC1	-2%
CC(C)N1C(=O)C2C(c3ccccc3O)NC(C)(C(=O)O)C2C1=O (stereo not drawn)	-5%
Cc1ccc(C(=O)Nc2ccc(N3CCN(C)CC3)cc2)cc1C	-22%
CCOC(=O)c1ccc(NC(=O)c2nc[nH]c2C(=O)NCCCNC(=O)c2[nH]cnc2C(=O)Nc2ccc(C(=O)OCC)cc2)cc1	-17%
COc1ccc(S(=O)(=O)N2CCOCC2)cc1NC(=O)CCc1cc(OC)c(OC)c(OC)c1	-2%
COC(=O)c1c(NC(=O)CN2C(=O)NC3(CCc4ccccc4C3)C2=O)sc2c1CCCCC2 (stereo not drawn)	-2%
CCOC(=O)CSc1nc(C)cc(C)n1	-6%
C/C=C(\C)C(=O)O[C@H](c1cc2ccc(=O)oc2cc1OC)[C@@H](O)C(C)(C)O	-3%
CC(C)c1ccc(NS(=O)(=O)c2ccc(Cl)nc2)cc1	-8%
Clc1ccc(-n2nnnc2SCc2c(-c3ccccc3)nc3sccn23)cc1	7%
N=C1/C(=C\c2coc3ccccc3c2=O)C(=O)N=C2SC=CN12	-23%
COc1cc2c(cc1OC)CN(C(=O)COc1ccc(C#N)cc1)CC2	-3%
Cc1cc(=O)n2nc(N(C)CC(=O)NCc3ccc(Cl)cc3)sc2n1	9%
C=C(C)COc1ccc2c(C)c(CCC(=O)N3C[C@H]4C[C@@H](C3)c3cccc(=O)n3C4)c(=O)oc2c1	-7%
CCOc1ccc(CCNC(=O)c2ccc(CNS(=O)(=O)c3ccccc3)cc2)cc1OCC	2%
O=C(N/N=C/c1ccncc1)c1cc(C2CC2)nc2ccccc12	-5%
O=C1CSC(c2ccc(Cl)cc2)N1Nc1nc(N2CCOCC2)nc(N2CCOCC2)n1 (stereo not drawn)	15%
C#CCOCCOCCOCCNc1nc(N2CCN(C(=O)[C@H](CCCN=C(N)N)n3cc(C(N)[C@@H](C)CC)nn3)CC2)nc(N2CCN(C(=O)[C@H](CCC(=O)O)n3cc([C@@H](N)CO)nn3)CC2)n1 (stereo partly drawn)	-1%
CC(CCc1ccco1)NC(=O)Cn1ncc2c1-c1ccccc1OC2 (stereo not drawn)	-12%
CC(C)NC(=O)CC(=O)N/N=C/c1ccc(F)cc1	4%
COc1ccc(C(C(=O)Nc2ccc(C(C)C)cc2)N(C)C(=O)CNC(C)=O)cc1 (stereo not drawn)	-12%
COc1ccc(-c2cn(Cc3ccc4c(c3)C(=O)c3ccccc3C4=O)nn2)cc1	15%
COC(=O)c1c(C(=O)OC)c(-c2cccc(Cl)c2)n2c1CS(=O)C2 (stereo not drawn)	-13%
O=C(O)c1ccc(NC(=O)c2cn(-c3ccccc3)nc2-c2ccc(Cl)cc2)cc1	-14%

4 records drawn at random from the list so far:
structure	VDR inh
CC(CCc1ccco1)NC(=O)Cn1ncc2c1-c1ccccc1OC2 (stereo not drawn)	-12%
Cc1cc(=O)n2nc(N(C)CC(=O)NCc3ccc(Cl)cc3)sc2n1	9%
CC(C)NC(=O)CC(=O)N/N=C/c1ccc(F)cc1	4%
COc1ccc(C(C(=O)Nc2ccc(C(C)C)cc2)N(C)C(=O)CNC(C)=O)cc1 (stereo not drawn)	-12%

More results
structure	VDR inh
Cc1[nH]c(=O)[nH]c(=O)c1S(=O)(=O)N1CCCC(C(=O)NCc2ccccc2Cl)C1 (stereo not drawn)	3%
Cc1c(NC(=O)C(C)N2C(=O)C3C4C=CC(C4)C3C2=O)c(=O)n(-c2ccccc2)n1C (stereo not drawn)	-7%
CN(C(=O)COC(=O)c1ccccc1SCC(=O)N1CCCC1)C1CCS(=O)(=O)C1 (stereo not drawn)	6%
COC(OC)C(C)NC(=O)NC(=O)c1ccccc1Cl (stereo not drawn)	-12%
COc1cccc(/C=C2\N=C(c3c(-c4ccccc4)noc3C)OC2=O)c1OC	2%
O=C1Nc2ccccc2Nc2ncccc21	11%
O=C(Cn1cnc2c(OCc3ccccc3)ncnc21)NCc1ccccn1	11%
CN(C=C1C(=O)CC(C)(C)CC1=O)CCN1CCNCC1	-12%
NS(=O)(=O)c1ccc(CNC(=O)c2ccc(Cl)c([N+](=O)[O-])c2)cc1	15%
Cc1onc(-c2c(F)cccc2Cl)c1C(=O)N=C(N)N1CCCC1	10%
CCOc1ccc(NC(=O)COC(=O)CC2CC3CCC2C3)cc1 (stereo not drawn)	-9%
COc1ccccc1-n1ncc2c(=O)[nH]c(SCC(=O)Nc3ccc(Cl)cc3)nc21	6%
O=C(CS(=O)CC(=O)Nc1cccnc1)Nc1ccc(F)cc1 (stereo not drawn)	10%
Cc1nnc(NC(=O)CN2CCN(Cc3c(Cl)cccc3Cl)CC2)s1	-13%
Cc1ccc2nc(CCc3nc4ccc(C)cc4[nH]3)[nH]c2c1	-20%
O=S(=O)(c1ccc(Oc2ccc(F)c(Cl)c2)nc1)N1CCOCC1	-1%
COc1cc2c(cc1OC)C1CC(=O)C(CC(C)C)CN1CC2 (stereo not drawn)	u
CCCN1CNc2c(c(=O)[nH]c(=S)n2CCc2ccc(Cl)cc2Cl)C1	-29%
CCOC(=O)CSc1nc2c(sc3ccccc32)c(=O)n1CCO	4%
O=C(O)c1ccc(S(=O)(=O)N2CCN(c3ccccn3)CC2)cc1	-12%
CC(C)c1ccc(CNC(=O)CSCC(=O)Nc2ccc3ccccc3c2)cc1	26%
Nc1ncnc2c1ncn2[C@H]1CC[C@@H](CO)O1	8%&-5%&3%
Cc1cc2c(c(/C=C/C(=O)c3ccccc3)c1)OC1(C=C2)Oc2ccccc2C(=O)N1C (stereo not drawn)	-10%
Cc1nc(NC(=O)COC(=O)CCS(=O)(=O)c2ccccc2Cl)c(Cl)cc1Cl	10%
C[C@H](NC(=O)CCn1nnc2ccccc2c1=O)C(=O)O	-22%
Cc1ccc(C)c(NC(=O)c2cnn3ccccc23)c1	-13%
CCOC(=O)C(=O)Nc1ccc2c(c1)OCO2	5%
O=C(CSc1ncccn1)Nc1cc(Cl)ccc1[N+](=O)[O-]	-1%
CC(C(=O)Nc1cccc([N+](=O)[O-])c1)N(c1ccccc1)S(C)(=O)=O (stereo not drawn)	-23%
CCOC(=O)c1ccc(NC(=O)/C=C/c2cccs2)cc1	33%[activator]
CCn1c(COc2ccccc2C)nnc1SCC(=O)OC	12%
Cc1ccc(C(=O)N(Cc2sccc2C)C2CCS(=O)(=O)C2)cc1 (stereo not drawn)	15%&4%

Some of the compounds tested; count on the stated rates, not on these rows.
